Screening data as filed in PubChem.
RecA intein inh: Mtb RecA intein splicing inhibitors, primary screen, biochemical, fluorescence, HTS. Protein RecA (Mycobacterium tuberculosis (strain ATCC 25618 / H37Rv)), P9WHJ3. AID 2221, 2009. inhibition, %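 (about 9 µM by stock and volumes)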. cell-free RecA intein splicing. 290,000 compounds, 0.75% hits; in the data active = inhibition above about 30%; inconclusive = no clear call, values can overlap the other calls;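 note: 0% = vehicle wells and 100% = reference inhibitor control wells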
Target sequence (P9WHJ3 whole entry, looked up): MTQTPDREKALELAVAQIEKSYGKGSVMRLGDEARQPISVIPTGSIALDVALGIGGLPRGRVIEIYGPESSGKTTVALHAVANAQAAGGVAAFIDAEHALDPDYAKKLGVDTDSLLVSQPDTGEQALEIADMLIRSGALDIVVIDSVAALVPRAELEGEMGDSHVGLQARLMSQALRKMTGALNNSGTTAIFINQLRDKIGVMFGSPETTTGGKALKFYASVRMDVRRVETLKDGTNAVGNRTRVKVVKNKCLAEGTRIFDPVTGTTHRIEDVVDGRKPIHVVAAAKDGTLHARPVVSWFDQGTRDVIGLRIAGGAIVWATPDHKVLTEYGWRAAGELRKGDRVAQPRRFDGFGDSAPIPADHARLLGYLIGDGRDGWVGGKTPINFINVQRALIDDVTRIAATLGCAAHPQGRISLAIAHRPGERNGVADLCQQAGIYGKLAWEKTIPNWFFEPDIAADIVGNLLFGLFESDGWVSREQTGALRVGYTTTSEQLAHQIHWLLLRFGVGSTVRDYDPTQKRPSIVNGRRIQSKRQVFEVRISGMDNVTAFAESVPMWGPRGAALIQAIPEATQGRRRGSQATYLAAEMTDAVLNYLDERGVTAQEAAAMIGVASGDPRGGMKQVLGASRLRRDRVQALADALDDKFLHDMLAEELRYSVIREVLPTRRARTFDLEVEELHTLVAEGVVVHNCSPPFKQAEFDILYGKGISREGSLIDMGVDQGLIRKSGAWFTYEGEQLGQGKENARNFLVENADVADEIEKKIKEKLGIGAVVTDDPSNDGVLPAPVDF
Arbovirus inh: antivirals against arbovirus infection, primary screen, cell-based, full library, 10K replicate subset. 200,000 compounds, 0.37% hits. arbovirus infection cell-based antiviral screen. inhibition, % at 10 µM. AID 1251, 2008;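 active = inhibition from about 30%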;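 note: bluetongue infection of BSR cells; cell survival read as ATP light after 72 h; 0% = infected wells without compound and 100% = uninfected wells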
YopH PTP inh: YopH tyrosine phosphatase inhibitors, primary screen, biochemical, fluorescence Ex485/Em525. YopH tyrosine phosphatase [Yersinia enterocolitica]. inhibition, %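 (about 10 µM by stock and volumes)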. 140,000 compounds, 0.16% hits. AID 898, 2007;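 active = inhibition of 50% or more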;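 note: controls were vehicle for no effect and minimum signal wells for full effect; inactives centre near -20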
Mtb H37Rv: M. tuberculosis H37Rv growth inhibitors, H37Rv strain (AID 1626) | M. tuberculosis H37Rv growth inhibition; higher % means a stronger effect | inhibition, % at 10 µM; hits with a dose series show IC50 in µM | 220,000 compounds, 0.95% hits;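 active = confirmed in a dose series; inconclusive = inhibition above 80% but not taken into the dose series; inactive = below 80% or under 30% at every dose of the series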;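 note: bacteria incubated seven days before Alamar blue readout; 0% = bacteria only wells and 100% = bacteria with antibiotic wells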
Mtb betalactam: beta-lactam sensitization of Mtb H37Rv, H37Rv. AID 434955, 2010. inhibition, % at 25 µM. 330,000 compounds, 0.27% hits. M. tuberculosis H37Rv growth with meropenem, percent inhibition; hits of this screen are not shown here;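 active = about 74% or more and at least 40 points above the plate without the antibiotic, then above 30% in a dose series; inconclusive = first-round hits that could not be retested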;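 note: growth measured after seven days incubation then overnight dye step; 0% = bacteria only wells and 100% = bacteria with antibiotic; twin plates without the antibiotic show which effects depend on it; some results filed as inactive read as strong as hits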
Arbovirus inh repeat: also measured in Arbovirus inh; calls as there; inhibition, %; measured here: 10K subset replicate screen; many hits read low in the repeat;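 first of two repeat runs on a subset; 0% = infected and 100% = uninfected wells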
Starred values were filed as active, the others as inactive; ? = inconclusive; . = not tested or not shown. Not all compounds are listed. The share of hits here may be higher or lower than overall.

SMILES | RecA intein inh | Arbovirus inh | YopH PTP inh | Mtb H37Rv | Mtb betalactam | others
COc1ccc(N2C(=O)C3CCCN3C2c2cccc(OC)c2OC)cc1 (centres undefined) | 1.4 | 6 | -26 | -4% | 5
O=C(CNC(=O)c1ccccc1F)Nc1ccncc1 | -1.5 | . | . | . | -5
O=C(NCCc1csc(-c2cccnc2)n1)c1cccc(Cl)c1 | 0.6 | . | . | 2% | -2
CCn1cc(CN2CCN(CCc3ccccc3)C(CCO)C2)c(C)n1 (centres undefined) | -2.2 | -8 | . | 6% | 1
O=C(c1ccccc1C(=O)N(c1ccccc1)c1ccccc1)N1CCCCC1 | -1.5 | 2 | 0 | 5% | -2
CN=C(Nc1cccc(OC)c1)SC1CC(=O)N(c2ccc(C(=O)O)cc2)C1=O (centres undefined) | 3.3 | 7 | -6 | 7% | 7
COc1ccc(S(=O)(=O)N2CCC(C(=O)N[C@@H](C)C(=O)NC3CC3)CC2)cc1 | 0.7 | . | . | . | -8
Cc1ccc(S(=O)(=O)Nc2ccccc2-c2ccccc2NS(=O)(=O)c2ccc(C)cc2)cc1 | 20 | -27 | -34 | -1% | -3
CN1C(=O)CS(=O)c2ccc(C(=O)NC3CC3)cc21 (centres undefined) | -3.9 | -3 | -5 | -11% | 5 | Arbovirus inh repeat=-2
CN(C(=O)COC(=O)c1cc(-c2ccccc2Cl)nc2ccccc12)C1CCS(=O)(=O)C1 (centres undefined) | 0.4 | 8 | -7 | 8% | 4
FC(F)Oc1ccc(NC(=S)NC23CC4CC(CC(C4)C2)C3)cc1 | 2.9 | . | . | . | 89
CN(C)c1nc(N2CCN(c3ccccc3)CC2)c(C#N)c(=O)o1 | . | 10 | -20 | 0% | -1
Cc1cc(NS(=O)(=O)c2ccc(NC(=O)Nc3cccc(C(F)(F)F)c3)cc2)no1 | 0.6 | . | . | . | 8
Cc1cccc(Cn2c(=O)n(-c3ccc(CC(=O)NCc4ccco4)cc3)c(=O)c3sccc32)c1 | -1.2 | -28 | -53 | 16% | 18
Cc1ccc(N2C(=O)C(F)(F)C2c2ccccc2)cc1 (centres undefined) | 4.5 | 2 | . | 4.4µM* | 99
COc1ccc(C(=O)NNC(=O)C23CC4CC(CC(C4)C2)C3)c(OC)c1 | -0.7 | . | . | . | -5
CCOC(=O)C1CCN(S(=O)(=O)c2c(Cl)ccc3nonc23)CC1 | 41* | . | . | . | ?
CCOC(=O)CN1C(=O)CN(c2ccc(C)c(C)c2)C1=O | 0.5 | -5 | -54 | 2% | 0
COCCOC(=O)c1c(C)oc2ccc(OCc3cc(C(=O)OC)oc3C)cc12 | 3.0 | 10 | -25 | 5% | 77
CC(C)Cn1c(N)c(C(=O)COC(=O)c2cc(F)cc(F)c2)c(=O)n(C)c1=O | -1.2 | 5 | . | -1% | -7
O=C(CNc1ccc(Oc2ccccc2)cc1)N1CCOCC1 | -1.2 | 3 | 6 | 1% | -3
CC(=O)c1cccc(OCC(=O)Nc2cc(Cl)ccc2-n2cncn2)c1 | -0.4 | . | . | . | 3
Cc1nc2c(-c3ccc(F)cc3)c(C)nn2c(C)c1CCC(=O)NCCN1CCOCC1 | 2.0 | 0 | -18 | 0% | -1
COc1ccc2[nH]c(=O)c(CN(C(=O)c3cccnc3)c3cccc(C)c3)cc2c1 | -1.1 | . | . | -2% | -1
O=C(Nc1cccc2ccccc12)c1ccccc1 | 2.3 | . | . | 3% | 20
Remaining list, next part:
SMILES | RecA intein inh | Arbovirus inh | YopH PTP inh | Mtb H37Rv | Mtb betalactam | others
S=c1nc[nH]c2c1sc1nc(-c3ccccc3)c3c(c12)CCCC3 | 5.8 | -11 | -26 | 21% | 10
CCCC(c1nnnn1C(C)(C)C)N1CCN(Cc2ccccc2OC)CC1 (centres undefined) | -0.7 | 2 | . | -3% | -8
Cc1c2c(nc3c(C)cccc13)OC(C)C2 (centres undefined) | -0.6 | -3 | 11 | 7% | -1
c1ccc(-c2cc(N3CCCCCC3)n[nH]2)cc1 | 11 | 6 | 16 | 5% | 44
COC(=O)CSC1=C(C#N)C(=O)NC2(CCCCC2)S1 | 1.4 | -3 | -26 | -5% | -4
CCOc1ccc(NC(=O)c2csc3c2CCCC3)cc1 | 1.5 | -14 | -28 | . | -7
Cc1cccc(C(=O)NCc2nnc(SCC(=O)Nc3nncs3)n2C)c1 | -1.6 | . | . | . | 5
c1ccc2c(c1)nc(-c1ccncc1)n1nnnc21 | -4.8 | 1 | 1 | -10% | -3
C(=C\c1ccccc1)/CN1CCN(C(c2ccccc2)c2ccccc2)CC1 | 2.5 | -14 | -27 | ? | -1
COc1cc(-c2nc3ccccn3c2NCC2CCCO2)ccc1O (centres undefined) | -104 | -8 | -38 | -1% | -5
COc1ccc(C(=O)NCC(=O)OCn2nnc3ccccc3c2=O)cc1OC | 0.3 | 0 | . | -5% | 0
CN(N)c1nc2ccccc2nc1C(F)(F)F | 0.2 | 1 | . | 4% | 1
CC(C)CN(C(=O)COC(=O)CSc1ccccc1)c1c(N)n(Cc2ccccc2)c(=O)[nH]c1=O | -3.8 | . | . | . | -1
Cc1noc(C)c1COC(=O)CCCc1nc2ccccc2s1 | 3.6 | -4 | -34 | -4% | -10
C#CCNC(=O)C1=C[C@H](c2ccc(C(F)(F)F)cc2)[C@@H](CCCO)[C@H](OCC)O1 | 1.2 | 0 | . | -13% | -8
CCn1c(SCC#N)nc2c(c1=O)C1(CCCC1)Cc1ccccc1-2 | 3.5 | -8 | -13 | -5% | 14
CCO[C@@H]1OC(C(=O)N2CCOCC2)=C[C@H](C(C)(C)C)[C@H]1CCCO | 1.0 | . | . | -5% | -10
CCOC(=O)c1ccc(NC(=O)C2C3C=CC(C3)C2C(=O)O)cc1 (centres undefined) | -1.6 | -4 | -48 | ? | 95 | Arbovirus inh repeat=-2
O=C(CSc1nc2ccccc2c(=O)[nH]1)c1ccc(O)c(O)c1 | -0.2 | 8 | -51 | 0% | 2
CC1=C(C(=O)Nc2ccccc2)C(c2ccccn2)n2ncnc2N1 (centres undefined) | 5.9 | 4 | -19 | . | 1
CNC(=O)COC(=O)c1ccc([N+](=O)[O-])cc1Cl | -6.5 | -1 | 6 | 11% | 3
CN(c1c(C#N)c(C(F)(F)F)nn1C)N(S(C)(=O)=O)S(C)(=O)=O | -1.6 | 8 | . | -5% | 0
CC(C)CNS(=O)(=O)c1ccc(C(=O)Nc2ccc3c(c2)OCCO3)cc1 | 0.2 | -11 | -8 | 2% | -5
COc1ccc(OC)c(/C=N/NC(=O)C(O)c2ccccc2)c1 (centres undefined) | -3.5 | . | . | . | 2
Cc1ccc(C)c(N2CCN(C(=O)COc3cc(=O)n(C)c4ccccc34)CC2)c1 | -0.7 | 1 | -23 | . | -6

Of the compounds above, five contain a Cl atom.
SMILES | RecA intein inh | Arbovirus inh | YopH PTP inh | Mtb H37Rv | Mtb betalactam | others
O=C(NCCc1csc(-c2cccnc2)n1)c1cccc(Cl)c1 | 0.6 | . | . | 2% | -2
CN(C(=O)COC(=O)c1cc(-c2ccccc2Cl)nc2ccccc12)C1CCS(=O)(=O)C1 (centres undefined) | 0.4 | 8 | -7 | 8% | 4
CCOC(=O)C1CCN(S(=O)(=O)c2c(Cl)ccc3nonc23)CC1 | 41* | . | . | . | ?
CC(=O)c1cccc(OCC(=O)Nc2cc(Cl)ccc2-n2cncn2)c1 | -0.4 | . | . | . | 3
CNC(=O)COC(=O)c1ccc([N+](=O)[O-])cc1Cl | -6.5 | -1 | 6 | 11% | 3

Other entries follow.
SMILES | RecA intein inh | Arbovirus inh | YopH PTP inh | Mtb H37Rv | Mtb betalactam | others
O=C(CS(=O)(=O)Cc1ccccc1)N1CCc2ccccc2C1 | 4.7 | 4 | -37 | -9% | .
CCOC(=O)c1c(-c2ccccc2)oc2ccc(O)cc12 | -3.0 | . | . | . | 73
Cc1ccc2nc(-c3cccnc3)cc(C(=O)N3CCN(c4ccc([N+](=O)[O-])cc4)CC3)c2c1 | 0.3 | -15 | . | 4% | -15
CC(=O)NC1C(=O)N(CCc2ccccc2)c2ccccc21 (centres undefined) | -0.4 | 2 | -1 | -10% | 1
O=C(CNC(=O)OCc1ccccc1)NCC(=O)Nc1ccc(Br)cc1C(=O)c1ccccc1 | 2.8 | 0 | -30 | 8% | -4
CCc1cc2c(=O)c(-c3nc4ccccc4n3C)c(C)oc2c(CN2CCCCC2)c1O | 0.6 | . | . | -10% | -6
CC(=O)N[C@@H](CS)C(=O)O | -1.5 | -2 | -37 | . | 0
c1ccc(-c2nc(C3CCCCC3)c3sccc3n2)cc1 | 2.8 | . | . | 6% | 52
O=C(N/C(=C/c1ccccc1Cl)C(=O)N1CCCC1)c1ccccc1 | 0.4 | -2 | . | -3% | 0
O=C1NCCN1C(=O)C12CC3CC(CC(C3)C1)C2 | -2.1 | 4 | -15 | -8% | 4
COC(=O)Nc1ncc(CN2CCCCC2)s1 | -11 | 2 | 10 | -4% | -9
O=C(c1ccc2snnc2c1)N1CCN(c2ccccc2)CC1 | . | 12 | -22 | 12% | 3
CCn1c(CC(=O)Nc2ccccc2C)nnc1SCC(=O)Nc1nncs1 | 0.3 | . | . | . | 3
CN(C)S(=O)(=O)c1ccc(N2CCCC2)c(C(=O)NCC2COc3ccccc3O2)c1 (centres undefined) | -1.4 | . | . | . | 3
O=c1cc(-c2ccccc2)nc2nc(SCc3ccccc3)[nH]n12 | 0.3 | -2 | -31 | -4% | -2
CCOC(=O)C(O)C1CCc2c([nH]c3ccc(C)cc23)C1=O (centres undefined) | 2.8 | . | . | -9% | -2
Cc1cc2nc(SCCN3CCCC3)[nH]c2cc1C | 3.5 | -4 | -7 | -6% | 0 | Arbovirus inh repeat=5
Cc1occc1C(=O)Nc1cccc(C(F)(F)F)c1 | 3.5 | 0 | -27 | -2% | -2
O=C1NC(c2cccc([N+](=O)[O-])c2)=CCN1c1ccccc1O | -1.3 | . | . | -2% | -6
CCCC1CC(C)(C(=O)CSc2n[nH]c(-c3ccccc3)n2)OC1=O (centres undefined) | 1.0 | 5 | -22 | -5% | -1
CCOC(=O)C1=C(C)NC(SC)=NC1c1ccc(OC)cc1 (centres undefined) | 3.7 | -8 | 3 | . | -1
CCC(=O)N=c1sc2c(OC)ccc(OC)c2n1C | 1.0 | -2 | -32 | 13% | 5 | Arbovirus inh repeat=-3
CCc1nn2c(=O)cc(COc3cccc(NC(=O)c4ccco4)c3)nc2s1 | 1.0 | . | . | . | 6
CCc1nonc1NC(=O)c1oc2cc(C)c(Cl)cc2c1C | 7.1 | . | . | . | -2
CC(=O)Nc1ccc(Oc2nc(-c3cccnc3)nc3sc4c(c23)CCCC4)cc1 | -1.0 | . | . | . | -1
The listing continues:
SMILES | RecA intein inh | Arbovirus inh | YopH PTP inh | Mtb H37Rv | Mtb betalactam | others
CCOC(=O)c1c(C)[nH]c(C)c1C(=O)COC(=O)/C=C/c1cccc(C(F)(F)F)c1 | 1.6 | 17 | -23 | 11% | 22
CSC1=NCCN1S(=O)(=O)c1ccc(C)cc1 | -0.3 | -3 | . | -2% | -6
CCOC(=O)NN1C(=O)c2ccccc2NC1(C)C | -4.1 | 2 | . | -1% | 0
O=C1CC(N2CCOCC2)C(=O)N1c1ccccc1Cl (centres undefined) | -3.9 | 5 | 6 | -11% | 7
Cc1nn(C)c2c(=O)c(=O)c2n(C)[nH]1 | 2.6 | . | . | -3% | 2
CCCC(=O)NCC(c1cccs1)S(=O)(=O)c1ccc(C)cc1 (centres undefined) | -1.7 | . | . | . | -2
O=C(COC(=O)c1ccc(Br)cc1)NCc1ccc(F)cc1 | 4.7 | 2 | . | 4% | -7
O=C(CCCn1c(=S)[nH]c2ccsc2c1=O)Nc1ccc2c(c1)OCCO2 | 0.4 | -11 | . | -7% | -3
C=CCn1cc(C(C)=O)c(=O)[nH]c1=O | 1.9 | 1 | . | -1% | 4
Cn1ccc2cc(NC(=O)Nc3cccnc3)ccc21 | 3.2 | . | . | -3% | -2
CN1CCN(C(=S)NC(=O)c2ccc(-c3ccccc3)cc2)CC1 | -2.9 | 2 | . | ? | 93
Cc1cc(Cl)ccc1N(CC(=O)NCc1ccccc1)S(C)(=O)=O | -0.3 | . | . | . | -2
COc1ccc(-n2c(=S)[nH]c3[nH]ncc3c2=O)cc1 | -3.2 | . | . | 7% | 0
CCc1ccc(CN(C)C(=O)c2cc(S(=O)(=O)N3CCOCC3)ccc2N2CCCC2)cc1 | 12 | . | . | . | -7
CCOC(=O)NC1(C(F)(F)F)NC(=O)N(C2CCCCC2)C1=O (centres undefined) | -11 | 4 | -3 | 7% | 4
